# Hedgehog cleavage = Drosophila hedgehog isoform A inhibitors, primary screen, biochemical, plate reader, single concentration (AID 588832); Biochemical plate reader assay, Hedgehog inhibition; active compounds read high; inhibition, % at 30.3 µM; 8,000 tested, under 10 active; in the data active means inhibition from about 57%;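 further: 0% = neutral control wells and 100% = positive control wells; cholesterol-driven self-cleavage of fly hedgehog protein by fluorescence polarization; read one hour after cholesterol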
# * hit, by the source's call. Not all compounds are listed, so the mix of outcomes need not match the whole.
no.	canonical_smiles	Hedgehog cleavage
1	Cc1c(OCC(=O)NC(Cc2ccc(Cl)cc2)C(=O)O)ccc2c(-c3ccccc3)cc(=O)oc12 (stereo unspecified)	-3.5
2	Oc1ccccc1CNc1nc2ccccc2n1CCN1CCCCC1	11.1
3	COC(=O)c1cc(S(=O)(=O)N2CCN(c3cccc(C)c3C)CC2)c[nH]1	8.7
4	CCC(SCC(=O)OC)C(=O)Nc1nnc(C(C)C)s1 (stereo unspecified)	6.8
5	COc1ccc(OC)c(S(=O)(=O)Nc2ccc(OCC(=O)O)cc2)c1	3.6
6	Cc1cccc(N2CCN(S(=O)(=O)c3cc4c(cc3Cl)NC(=O)CO4)CC2)c1C	3.6
7	Cc1ccc(C)c(N)c1	5.4
8	CC(Sc1nncn1C)C(=O)Nc1nnc(-c2ccccc2)s1 (stereo unspecified)	5.4
9	CCN(CC)c1ccc(NC(=O)CSc2nnc(N)s2)cc1C	19.2
10	CCOc1ccc(Cn2nnc(C(=O)Nc3cc(OC)cc(OC)c3)c2N)cc1	10.0
11	O=C1CC(c2nc3ccccc3[nH]2)CN1c1ccccc1F (stereo unspecified)	9.5
12	CC(=O)Nc1nc2cc3c(cc2s1)OCO3	9.7
13	O=C(O)CC(O)(CC(=O)O)C(=O)O	5.1
14	Cc1cc(NC(=O)CSc2nc3c(c(=O)n2CCc2ccccc2)SC(C)C3)no1 (stereo unspecified)	6.8
15	CC1CC(C)CN(CCCNC(=O)CCC(=O)N2CCOc3ccccc32)C1 (stereo unspecified)	5.1
16	CC1(C)C2CC[C@]3(C)C(CC=C4[C@@H]5C[C@](C)(CO)CC[C@]5(C(=O)O)CC[C@]43C)[C@@]2(C)CC[C@@H]1O (stereo partly specified)	6.9
17	O=C1C(O)=C(O)C(=O)c2ccccc21	0.0
18	COC(=O)c1ccccc1NC(=O)C1CCCN(c2nnc(-n3cccc3)s2)C1 (stereo unspecified)	0.9
19	Cc1c(OCC(=O)N[C@@H](Cc2ccccc2)C(=O)O)ccc2c3c(c(=O)oc12)CCC3	1.5
20	C[C@@H](C(=O)NC1CCCCC1)N1C(=O)N2CCc3c([nH]c4ccccc34)[C@@]2(C)C1=O	5.2
21	CCCCn1c(CNC(=O)C(C)(C)C)nc2ccccc21	7.0
22	COc1ccccc1NC(=O)c1cc(S(=O)(=O)N2CCCC2)cn1C	13.6
23	CCOC(=O)N1CCN(c2cc(=O)n(-c3ccc(C)cc3)c(=O)[nH]2)CC1	6.8
24	COc1ccc(C(=O)O)c(O)c1	6.9
25	CC(C)[C@H](NC(=O)[C@H](Cc1ccccc1)n1c(=O)[nH]c2ccccc2c1=O)C(=O)N1CCC[C@H]1C(=O)O	3.5

# Exported with the structure last: part of the list above.
No.	Hedgehog cleavage	SMILES
2	11.1	Oc1ccccc1CNc1nc2ccccc2n1CCN1CCCCC1
3	8.7	COC(=O)c1cc(S(=O)(=O)N2CCN(c3cccc(C)c3C)CC2)c[nH]1
4	6.8	CCC(SCC(=O)OC)C(=O)Nc1nnc(C(C)C)s1 (stereo unspecified)
5	3.6	COc1ccc(OC)c(S(=O)(=O)Nc2ccc(OCC(=O)O)cc2)c1
6	3.6	Cc1cccc(N2CCN(S(=O)(=O)c3cc4c(cc3Cl)NC(=O)CO4)CC2)c1C
7	5.4	Cc1ccc(C)c(N)c1
8	5.4	CC(Sc1nncn1C)C(=O)Nc1nnc(-c2ccccc2)s1 (stereo unspecified)
9	19.2	CCN(CC)c1ccc(NC(=O)CSc2nnc(N)s2)cc1C
10	10.0	CCOc1ccc(Cn2nnc(C(=O)Nc3cc(OC)cc(OC)c3)c2N)cc1
11	9.5	O=C1CC(c2nc3ccccc3[nH]2)CN1c1ccccc1F (stereo unspecified)
12	9.7	CC(=O)Nc1nc2cc3c(cc2s1)OCO3
13	5.1	O=C(O)CC(O)(CC(=O)O)C(=O)O
14	6.8	Cc1cc(NC(=O)CSc2nc3c(c(=O)n2CCc2ccccc2)SC(C)C3)no1 (stereo unspecified)
15	5.1	CC1CC(C)CN(CCCNC(=O)CCC(=O)N2CCOc3ccccc32)C1 (stereo unspecified)
16	6.9	CC1(C)C2CC[C@]3(C)C(CC=C4[C@@H]5C[C@](C)(CO)CC[C@]5(C(=O)O)CC[C@]43C)[C@@]2(C)CC[C@@H]1O (stereo partly specified)
17	0.0	O=C1C(O)=C(O)C(=O)c2ccccc21
18	0.9	COC(=O)c1ccccc1NC(=O)C1CCCN(c2nnc(-n3cccc3)s2)C1 (stereo unspecified)
19	1.5	Cc1c(OCC(=O)N[C@@H](Cc2ccccc2)C(=O)O)ccc2c3c(c(=O)oc12)CCC3
20	5.2	C[C@@H](C(=O)NC1CCCCC1)N1C(=O)N2CCc3c([nH]c4ccccc34)[C@@]2(C)C1=O
21	7.0	CCCCn1c(CNC(=O)C(C)(C)C)nc2ccccc21
22	13.6	COc1ccccc1NC(=O)c1cc(S(=O)(=O)N2CCCC2)cn1C
23	6.8	CCOC(=O)N1CCN(c2cc(=O)n(-c3ccc(C)cc3)c(=O)[nH]2)CC1
24	6.9	COc1ccc(C(=O)O)c(O)c1
25	3.5	CC(C)[C@H](NC(=O)[C@H](Cc1ccccc1)n1c(=O)[nH]c2ccccc2c1=O)C(=O)N1CCC[C@H]1C(=O)O

# The main list resumes, starting 4 compounds before the break.
no.	canonical_smiles	Hedgehog cleavage
22	COc1ccccc1NC(=O)c1cc(S(=O)(=O)N2CCCC2)cn1C	13.6
23	CCOC(=O)N1CCN(c2cc(=O)n(-c3ccc(C)cc3)c(=O)[nH]2)CC1	6.8
24	COc1ccc(C(=O)O)c(O)c1	6.9
25	CC(C)[C@H](NC(=O)[C@H](Cc1ccccc1)n1c(=O)[nH]c2ccccc2c1=O)C(=O)N1CCC[C@H]1C(=O)O	3.5
26	COC(=O)C1(C)Nc2ccccc2C(=O)N1c1ccccc1C (stereo unspecified)	10.0
27	CC(C)OCCCNC(=O)c1cc(S(=O)(=O)N2CCc3ccccc32)cn1C	12.8
28	C[C@@H]1Cc2c(O)c(O)cc(O)c2C(=O)O1	4.9
29	O=C(CN1CC(c2ccccc2)CC1=O)Nc1ccc2c(c1)OCO2 (stereo unspecified)	10.0
30	Cc1cc(C)c(S(=O)(=O)NCc2nc3nc(C)cc(C)n3n2)c(C)c1	7.0
31	Cc1cccc2sc(NNC(=O)c3ccc(S(=O)(=O)N4CC(C)CC(C)C4)cc3)nc12 (stereo unspecified)	1.7
32	COc1cc(C)c(C(=O)Oc2cc(C)c(C(=O)O)c(O)c2)c(O)c1	7.2
33	O=C(CN(Cc1ccccc1F)S(=O)(=O)c1ccc(Cl)cc1)NCCCO	5.0
34	CCCC(NC(=O)Cc1c(C)c2cc3c(C)c(C)oc3c(C)c2oc1=O)C(=O)N[C@@H](Cc1ccccc1)C(=O)O (stereo partly specified)	5.4
35	O=C(NCC(c1cccnc1)N1CCN(c2ccc(F)cc2)CC1)c1ccco1 (stereo unspecified)	3.6
36	CC(C)[C@@H](C(=O)N1CCCC1)N1C(=O)N2CCc3c([nH]c4ccccc34)[C@@]2(C)C1=O	6.9
37	COC(=O)C1C(=O)c2c([nH]c(C(=O)OC3CCCC3C)c2C)CC1C (stereo unspecified)	10.0
38	COc1ccc(OC)c(NC2c3ccccc3C(=O)N2Cc2ccc3c(c2)OCO3)c1 (stereo unspecified)	-1.9
39	CCOc1ccccc1C(=O)Nc1nnc(CC)s1	2.7
40	O=c1cc(N2CCCCCC2)[nH]c(=O)n1-c1ccc(Cl)cc1	9.6
41	CC(C)=CCC/C(C)=C/C(=O)O	9.0
42	Cc1ccc(N2C(=O)c3ccccc3C2Nc2cccnc2)nc1 (stereo unspecified)	0.0
43	C=CCN(c1ccccc1)S(=O)(=O)c1cc2c(cc1C)N(C)CCO2	8.7
44	Cc1ccc(NC(=O)CSc2nnc(Cn3c(=O)sc4ccccc43)n2C)cc1	16.7
45	O=C(COc1ccc2c(-c3ccccc3)cc(=O)oc2c1)NCc1ccccn1	5.3
46	Cc1cccc(N2CCN(C(=O)Cn3nc(C)n4cccc4c3=O)CC2C)c1 (stereo unspecified)	3.4
47	O=C(NCCCN1CCCC1=O)c1ccc2c(c1)NC(=O)c1ccccc1S2	-2.2
48	OC[C@@H](O)[C@@H](O)[C@H](O)[C@@H](O)CO	3.2
49	Cc1cc2c(cc1S(=O)(=O)NCc1ccc(N(C)C)cc1)OCC(=O)N2	-3.8
50	Cc1c(OCC(=O)N2CCC(C(N)=O)CC2)ccc2c3c(c(=O)oc12)CCCC3	3.5

no.	canonical_smiles	Hedgehog cleavage
51	CC(Oc1ccc2cc(-c3ccccc3)c(=O)oc2c1)C(=O)NCC1CCC(C(=O)O)CC1 (stereo unspecified)	1.8
52	CCCc1cc(C(=O)Nc2cccc(Cl)c2)no1	0.9
53	COc1cccc(CNC(=O)Cc2ccc(NC3=NC4CS(=O)(=O)CC4S3)cc2)c1 (stereo unspecified)	1.6
54	CC1=CC(=O)O[C@@H]1[C@@]1(C)C[C@H]2OC(=O)C[C@H]3[C@@H](C)C(=O)C(O)=C1[C@@]23CO	4.9
55	O=C(NCCCN1CCOCC1)c1ccc(CS(=O)(=O)c2ccc(Br)cc2)o1	5.0
56	Cc1c(Cl)ccc2sc(NC(=O)c3ccco3)nc12	13.3
57	CCc1ccc(NC(=O)C2=CC(c3cccs3)=NS(=O)(=O)N2C)cc1	1.7
58	COc1ccc(S(=O)(=O)N2CCOC2CNC(=O)C(=O)NCCc2ccccc2)cc1OC (stereo unspecified)	-1.9
59	Cc1ccc(OCC(O)CN2C(=O)NC(C)(C)C2=O)cc1C (stereo unspecified)	1.8
60	Cc1ccc2oc(=O)c3cc(C(=O)NCCN4CCc5ccccc5C4)sc3c2c1	4.2
61	Cc1ccc(N(C)C(=O)c2cc(S(=O)(=O)N3CCc4ccccc43)cn2C)cc1	7.0
62	N#Cc1nc(-c2ccccc2F)oc1NC1CCCCC1	15.0
63	CCOc1ccc2nc(N3CCC(C(=O)N4CCN(C(=O)c5ccco5)CC4)CC3)sc2c1	19.2
64	Cc1cccc(NCc2nc(-c3ccccc3)no2)c1	16.7
65	Cn1cccc1Cc1nnc(SCC(=O)Nc2ccc(Cl)cc2)n1-c1ccc(F)cc1	25.0
66	Cn1c(=O)c2c(SCc3cccnc3)nc(C3CC3)nc2n(C)c1=O	1.7
67	Cc1ccc2oc(=O)c3cnn(CC(=O)N(Cc4ccco4)C4CCCCC4)c3c2c1	-4.6
68	CN1CCN(S(=O)(=O)c2ccc3ccccc3c2)CC1	6.3
69	CC(=O)C1=C(O)C(=O)N(c2nnn(C)n2)C1c1cccs1 (stereo unspecified)	29.2
70	OCC1OC(O)CC(O)C1O (stereo unspecified)	0.0
71	CCc1c(C)sc(NC(=O)c2cc(CC(C)C)on2)c1C#N	9.5
72	COc1ccc(C2COc3cc(O)ccc3C2)c(OC)c1O (stereo unspecified)	1.7
73	Cc1ccc(NC(=O)c2ccc(C)c(NC3=NC4CS(=O)(=O)CC4S3)c2)cc1C (stereo unspecified)	3.4
74	C[C@H](NC(=O)[C@H](Cc1ccccc1)n1c(=O)[nH]c2ccccc2c1=O)C(=O)N1CCC(C(=O)O)CC1	8.8
75	COCCOC(=O)c1[nH]c2c(c1C)C(=O)CC(c1ccco1)C2 (stereo unspecified)	16.7

no.	canonical_smiles	Hedgehog cleavage
76	COc1ccc(OC)c(-c2nc(C(=O)NCC3CCCO3)cc3c2[nH]c2ccccc23)c1 (stereo unspecified)	10.8
77	Cc1ccc(NC(=O)c2ccc(CN3CC(=O)N4CCCCC4C3=O)cc2)c(C)c1 (stereo unspecified)	7.0
78	COc1ccccc1N1CCN(C(CNS(=O)(=O)c2cccs2)c2cccnc2)CC1 (stereo unspecified)	5.1
79	COc1cc(C(=O)Nc2nnc(C)s2)cc(OC)c1OC	3.7
80	CCn1c(SCCC(C)C)nnc1-c1c[nH]c2ccccc12	0.0
81	CCC1CCCCN1C(=O)CSc1nc(N)c(NC(=O)c2ccc(OC)c(OC)c2)c(=O)[nH]1 (stereo unspecified)	5.4
82	Cc1ccc(C)c(N2CCN(C(=O)c3cc(S(=O)(=O)N4CCOCC4)cn3C)CC2)c1	8.4
83	O=C(CO)c1c[nH]c2ccccc12	3.4
84	COc1ccc(N(CC(=O)Nc2nc3ccc(C)cc3s2)S(=O)(=O)c2c(C)nn(C)c2C)cc1	33.6
85	Cc1cc(OCC(=O)Nc2ccccc2C(N)=O)c2c(C)cc(=O)oc2c1	0.0
86	O=C1c2ccccc2C(Nc2ccc3c(c2)OCO3)N1Cc1ccc2c(c1)OCO2 (stereo unspecified)	6.7
87	O=C(O)C1CCN(C(=O)COc2ccc3c(c2)oc(=O)c2ccccc23)CC1	12.3
88	C[N+](C)(C)C[C@H](O)CC(=O)[O-]	0.0
89	Cc1cc(F)ccc1NC(=O)c1cc(S(=O)(=O)N2CCOCC2)cn1C	3.5
90	COc1ccc2ccc(=O)oc2c1CC(O)C(C)(C)O (stereo unspecified)	1.8
91	CC(C)[C@H](NC(=O)N1CC(=O)Nc2ccccc21)C(=O)N1CCC[C@@H]1C(=O)O	8.8
92	CC(C)[C@@H](C(=O)NC1CCCC1)N1C(=O)N2CCc3c([nH]c4ccccc34)[C@@]2(C)C1=O	6.9
93	CCn1cc(C(=O)NCCCN(C)c2ccccc2)c(=O)c2cc(S(=O)(=O)N(C)C)ccc21	8.3
94	COc1ccc(C(c2sc3ncnn3c2O)N2CCN(c3ccccc3F)CC2)cc1OC (stereo unspecified)	-3.4
95	CC1CCN(C(=O)c2ccc(CSc3nc4ccncc4n3Cc3ccc(F)cc3)cc2)CC1	8.7
96	COc1ccc(C2C(C(=O)Nc3cccnc3)=C(C)Nc3nc(-c4ccco4)nn32)cc1 (stereo unspecified)	20.8
97	CC(C)[C@H](NC(=O)N1CCn2c1nc1ccccc12)C(=O)N[C@H](C(=O)O)c1ccccc1	4.9
98	CC(C)c1nc(SCC(=O)N2CCOCC2)c2c(=O)n(C)c(=O)n(C)c2n1	0.9
99	CCc1ccc(C(c2ccc(CC)cc2)C(Cl)Cl)cc1	0.0
100	CCCn1c(CCNC(=O)c2cccs2)nc2ccccc21	7.0

# Screening data as filed in PubChem BioAssay.
